B2AR ag: activates human beta-2 adrenergic receptor causing internalization; P07550; Am2.2-beta2AR cells, FAP receptor internalization, flow cytometry; reference of the scale not given here; response, % (no concentration beside the values); 0.43% of 340,000 active; AID 504454;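 active = response above a set limit, near 3 SD of response in nonfluorescent compounds, cut at about 42% in these data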;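 also: stock transfer was 100 nL into about 11 µL; a reference agonist was the positive control; negative values mostly stem from fluorescent compounds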
ALR H2O2 inh: human ALR oxidase inhibition via reduced H2O2 | P55789 | purified ALR, DTT oxidation, H2O2 HRP-luminol luminescence | inhibition, % (concentration not given with the values) | 3.8% of 290,000 active | AID 485317;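 active = mean and each replicate at 75% or more; inconclusive = only one of the two met; inactive = neither met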;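 also: stock transfer was 7.5 nL into about 7.5 µL; 0% = neutral wells and 100% = wells with inactivated enzyme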
Vif TR-FRET: inhibitors of Vif binding to APOBEC3G peptide, primary screen, biochemical, TR-FRET, GST-Vif 1-94, biotin-A3G peptide, dose response retest (AID 1117319) | TR-FRET GST-Vif / biotin-A3G peptide binding; higher % means a stronger effect; test concentration not given here; strong numbers were not always called active | one-dose inhibition, %; IC50 in µM for titrated hits | 0.57% of 260,000 active;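 active = above the screen mean plus three standard deviations and confirmed in dose response; inconclusive = results disagree or hit not tested in dose response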;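 also: Vif residues 1-94 fused to GST binding biotinylated APOBEC3G peptide 110-148; 0% = full assay without inhibitor and 100% = GST in place of GST-Vif; retest series ran down from 100 µM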
RanGTP-Impb inh: inhibitors of RanGTP-importin-beta interaction, primary screen, biochemical, FRET, CFP-Ran, YFP-importin-beta, homogeneous. inhibition, % (no concentration beside the values). cell-free CFP-Ran/YFP-importin-beta FRET ratio. 1.1% of 300,000 active;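 active = most replicates above 15%; inconclusive = exactly half above 15%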;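 also: 0% = DMSO wells and 100% = Ran loaded with GDP instead of GTP; wells of about 40 µL received 100 nL stock; the first replicate is given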
Calb FLC: affects C. albicans growth with fluconazole; C. albicans CaCi-2 (fluconazole-resistant clinical isolate) + fluconazole, Alamar Blue growth, 48 h; growth inhibition, % (test concentration not listed); 0.57% of 300,000 active; AID 1979;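 active = most replicates above 75%; inconclusive = exactly half above 75%; inactive = most below 75%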;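 also: all wells also contain fluconazole at 8 µg/ml as a sub-toxic cotreatment; 0% = median of DMSO wells and 100% = median of geldanamycin control wells; wells of about 8 µL received 7.5 nL stock; the first replicate is given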
LANA-H2A inh: blocks KSHV LANA binding to histone H2A/H2B. cell-free LANA-H2A/H2B peptide, fluorescence polarization. AID 2629. inhibition, % (concentration not given with the values). 0.6% of 320,000 active. Q9QR71; in the data active = inhibition mostly above about 10%, no sharp cut-off; inactive = mostly below about 6.7%;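 also: stock transfer was 7.5 nL into about 10 µL; 0% = median of vehicle wells and 100% = median of positive control wells; one replicate is shown; the record names a cut of 25% in any replicate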
Target sequence (Q9QR71 whole entry, looked up): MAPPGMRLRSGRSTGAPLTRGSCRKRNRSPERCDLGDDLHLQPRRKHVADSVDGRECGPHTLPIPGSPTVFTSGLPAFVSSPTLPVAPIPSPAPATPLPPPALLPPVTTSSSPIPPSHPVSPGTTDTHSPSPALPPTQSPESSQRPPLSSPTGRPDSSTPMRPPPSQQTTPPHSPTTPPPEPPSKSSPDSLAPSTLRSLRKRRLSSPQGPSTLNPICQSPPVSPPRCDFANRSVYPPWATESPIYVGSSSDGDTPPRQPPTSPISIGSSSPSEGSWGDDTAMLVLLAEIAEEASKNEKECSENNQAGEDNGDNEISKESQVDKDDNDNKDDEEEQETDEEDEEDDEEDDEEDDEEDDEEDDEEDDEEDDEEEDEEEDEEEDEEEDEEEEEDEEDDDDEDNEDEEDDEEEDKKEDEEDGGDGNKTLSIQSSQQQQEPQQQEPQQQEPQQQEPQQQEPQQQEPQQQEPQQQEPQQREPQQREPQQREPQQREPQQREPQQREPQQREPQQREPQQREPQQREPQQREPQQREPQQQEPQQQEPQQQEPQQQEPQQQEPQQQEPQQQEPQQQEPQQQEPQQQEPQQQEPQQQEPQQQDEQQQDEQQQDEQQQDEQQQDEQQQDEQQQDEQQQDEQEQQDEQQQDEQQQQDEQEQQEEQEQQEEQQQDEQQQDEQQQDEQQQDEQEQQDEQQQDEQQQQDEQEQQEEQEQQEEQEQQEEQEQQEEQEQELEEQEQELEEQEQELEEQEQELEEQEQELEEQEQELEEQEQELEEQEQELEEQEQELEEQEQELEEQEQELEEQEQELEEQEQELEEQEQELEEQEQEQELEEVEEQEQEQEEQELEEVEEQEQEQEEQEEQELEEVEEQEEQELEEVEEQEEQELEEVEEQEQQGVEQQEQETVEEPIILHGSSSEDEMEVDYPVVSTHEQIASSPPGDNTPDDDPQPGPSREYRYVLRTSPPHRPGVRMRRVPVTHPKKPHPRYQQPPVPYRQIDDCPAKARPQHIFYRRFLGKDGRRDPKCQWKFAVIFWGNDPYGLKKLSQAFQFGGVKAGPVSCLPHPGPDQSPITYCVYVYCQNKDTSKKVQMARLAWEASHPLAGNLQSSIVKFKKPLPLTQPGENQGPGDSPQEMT
HNF4A DNA FP: change in binding of human HNF4 alpha to DNA. HNF4a-FITC DNA binding, fluorescence polarization, 1 h. activity change, % at 10 µM. 0.3% of 360,000 active. AID 1224865; in the data active = activity change above about 30%, passing the limit was not always enough;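 also: controls were the assay level and a saturating level of protein; the project sought stronger binding though the title names inhibitors; some compounds called inactive have numbers as strong as hits; positive values seem to mean higher polarization but the record does not say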
An asterisk follows results filed as active; ? = inconclusive; · = not tested or not shown.

SMILES	B2AR ag	ALR H2O2 inh	Vif TR-FRET	RanGTP-Impb inh	Calb FLC	LANA-H2A inh	HNF4A DNA FP
Cc1ccc(C(=O)NCC(=O)OCc2cccc(Br)c2)cc1	-3	-2	3%	0.8	7	-9.6	-3.9
CC(C)Cc1nc2oc3c(NCC4CCCO4)ncnc3c2c2c1CCC2 (stereo not given)	1	27	-2%	-0.9	1	6.3	4.2
Cc1ccc(CCNC(=O)c2nnc(CS(=O)(=O)c3ccccc3)o2)cc1	-3	-18	·	-7.6	-2	-1.7	2.7
CC(C)n1nc(C(=O)NNC(=O)c2ccc(OC(F)F)cc2)c2ccccc2c1=O	-4	0	3%	·	·	0.5	-3.9
CCN1CCN(C(=O)CN(C)S(=O)(=O)c2ccc(OC)cc2)CC1	0	-15	-2%	-0.6	6	5.2	-1.1
O=C(O)c1ccc(-n2cc(-c3cc4ccccc4oc3=O)[nH]c2=S)cc1	-8	·	?	·	·	·	-4.3
CC(C)(C)c1ccc(C(=O)Nc2ccc(S(N)(=O)=O)cc2)cc1	8	-19	0%	-3.0	·	-7.0	-2.3
CCCCN(C)C(=O)CCC(=O)Nc1ccc2nc(N3CCOCC3)cc(C)c2c1	-8	-4	9%	-0.4	-4	-1.0	0.8
COc1ccc(-c2cc(CCC(=O)N3CCN(c4cc(C)ccc4C)CC3)[nH]n2)cc1	3	·	-6%	·	·	·	-1.1
O=C(NCc1ccccc1)Nc1cccn(Cc2c(F)cccc2Cl)c1=O	-2	-21	0%	3.3	-7	4.8	0.3
CCCCn1c(N)c(N(CCOC)C(=O)c2ccc(-c3cccc(C(F)(F)F)c3)o2)c(=O)[nH]c1=O	-4	-3	-6%	5.6	3	6.0	-3.5
COc1ccc(N2CCN(CCC(N)=O)CC2)cc1	2	?	0%	1.2	37	-2.1	-2.2
COc1ccc(C(NC(C)=O)c2nccc3cc(OC)c(OC)cc23)cc1OC (stereo not given)	3	-16	-5%	-1.0	0	1.1	-1.5
CCOCCCn1c(C)nc2c[n+](CC(=O)c3ccc4ccccc4c3)cc(Br)c21	4	15	-2%	6.0	-32	0.1	1.0
CCc1ccccc1NC(=O)c1onc(C)c1Cl	9	-2	-1%	1.7	-4	0.2	0.5
CCOC(=O)/C=C/C(=O)OCC(=O)Nc1ccc(Cl)cc1Cl	-6	96*	14%	3.0	1	3.1	-1.4
COCCCN=C(c1ccco1)n1c(=S)nc(-c2ccco2)n(CCCOC)c1=S	-3	-16	17%	2.0	-2	0.2	0.2
CC(=O)Nc1ccc(-c2csc(NC(=O)CCCc3cccs3)n2)cc1	-4	0	4%	0.7	-18	1.2	2.5
CCOP(=O)(c1ccc(N(C)C)cc1)C(O)c1ccc(C)cc1 (stereo not given)	-1	-9	-3%	0.6	-6	4.9	-0.2
N#Cc1cc(-c2ccc(Cl)cc2)cnc1Sc1ccccc1	9	3	-10%	-1.4	-7	1.0	-1.7
CCC(=O)NNC(=O)CCC(=O)Nc1ccc(C)cc1C	8	-5	-6%	?	-1	-2.4	1.1
O=C(c1ccccc1)c1nc2ccccc2n(CCCn2c(=O)c(C(=O)c3ccccc3)nc3ccccc32)c1=O	15	-16	2%	-3.3	-14	-0.1	3.6
CCCNC(=O)Cn1c(=O)/c(=C\c2ccc(-c3cccc([N+](=O)[O-])c3)o2)s/c1=C\C(=O)C(C)(C)C	-18	7	9%	-4.2	-5	0.8	-54
C=CCNC(=O)c1c(CS(=O)(=O)c2ccccc2)noc1C(=O)NCc1ccccc1	-6	-2	·	·	·	-0.4	2.3
O=C(CCc1nc2ccccc2c(=O)[nH]1)NNC(=O)c1ccc(F)cc1	7	1	-1%	·	·	-3.8	3.5
Cc1ccc(C(=O)O)cc1-c1ccc(/C=C2\SC(=O)N(CC(=O)Nc3ccccc3)C2=O)o1	-3	0	·	24*	0	2.0	6.3
CN=C(Nc1cccnc1)c1ccccc1	0	·	-2%	3.0	1	-1.3	5.5
COc1ccc(C(=O)NC(C)c2cc(OC)c(OC)cc2Br)cc1 (stereo not given)	15	-12	4%	-2.3	-19	-3.9	1.0
COc1ccc(N2CCN(C(=O)c3ccc4c(c3)OCO4)CC2)cc1	-8	84*	6%	3.3	-6	-2.2	0.1
CC1CCN(C2=C(NS(=O)(=O)c3ccccc3)C(=O)c3ccccc3C2=O)CC1	-5	-26	1%	0.9	-5	-3.1	4.8

Four entries from above, with each value named:
> CC(C)Cc1nc2oc3c(NCC4CCCO4)ncnc3c2c2c1CCC2 (stereo not given)
  B2AR ag: 1; ALR H2O2 inh: 27; Vif TR-FRET: -2%; RanGTP-Impb inh: -0.9; Calb FLC: 1; LANA-H2A inh: 6.3; HNF4A DNA FP: 4.2
> Cc1ccc(CCNC(=O)c2nnc(CS(=O)(=O)c3ccccc3)o2)cc1
  B2AR ag: -3; ALR H2O2 inh: -18; Vif TR-FRET: ·; RanGTP-Impb inh: -7.6; Calb FLC: -2; LANA-H2A inh: -1.7; HNF4A DNA FP: 2.7
> CC(C)n1nc(C(=O)NNC(=O)c2ccc(OC(F)F)cc2)c2ccccc2c1=O
  B2AR ag: -4; ALR H2O2 inh: 0; Vif TR-FRET: 3%; RanGTP-Impb inh: ·; Calb FLC: ·; LANA-H2A inh: 0.5; HNF4A DNA FP: -3.9
> CCN1CCN(C(=O)CN(C)S(=O)(=O)c2ccc(OC)cc2)CC1
  B2AR ag: 0; ALR H2O2 inh: -15; Vif TR-FRET: -2%; RanGTP-Impb inh: -0.6; Calb FLC: 6; LANA-H2A inh: 5.2; HNF4A DNA FP: -1.1

Back to the main list with the 2 entries that preceded the break.
SMILES	B2AR ag	ALR H2O2 inh	Vif TR-FRET	RanGTP-Impb inh	Calb FLC	LANA-H2A inh	HNF4A DNA FP
COc1ccc(N2CCN(C(=O)c3ccc4c(c3)OCO4)CC2)cc1	-8	84*	6%	3.3	-6	-2.2	0.1
CC1CCN(C2=C(NS(=O)(=O)c3ccccc3)C(=O)c3ccccc3C2=O)CC1	-5	-26	1%	0.9	-5	-3.1	4.8
Cc1ccc(C2=NOC(C)(c3nnc(-c4cccc(Cl)c4)o3)C2)cc1 (stereo not given)	1	-2	·	4.7	-5	-2.4	-1.8
Cc1ccccc1C(NC(N)=O)c1ccccc1 (stereo not given)	-13	-3	19%	-1.2	-2	4.6	-2.9
N#CCN1CCC/C1=C\[N+](=O)[O-]	2	17	4%	-1.3	-8	-2.8	1.7
C=CC1=C2C=C(C3CC3)N(C3CC3)C=C2C(=O)C(C)(OC(=O)c2ccco2)C1=O (stereo not given)	10	-12	·	-6.1	8	2.8	-1.1
Cc1ccc(NC(=O)Cn2c(=O)n(Cc3ccco3)c(=O)c3ccccc32)c(C)c1	-10	·	28%	5.7	-11	-1.6	-4.0
COCCOC1CCN(Cc2cn(Cc3ccccc3)nc2-c2cc3ccccc3o2)CC1	2	-3	-6%	2.0	15	-1.0	1.4
O=C(Nc1ncc2c(n1)CC(c1ccccc1)CC2=O)c1ccco1 (stereo not given)	-18	-3	24%	-2.8	26	-4.5	1.1
COc1cc(OC)cc(C(=O)N[C@H](C(=O)NCc2ccccc2)C(C)C)c1	-10	-23	9%	1.3	·	0.3	-3.0
Cc1cc(NC(=O)COC(=O)C2CCN(S(=O)(=O)c3ccc(Cl)cc3)CC2)no1	9	-7	4%	-1.4	7	-0.8	-2.8
CN(C)c1ccc(CNC(=O)C2CCC(CNc3c(N4CCCCC4)c(=O)c3=O)CC2)cc1 (stereo not given)	-1	·	8%	4.4	4	2.4	1.3
O=C(C/C=N/OCc1c(Cl)cccc1Cl)c1ccc(Cl)cc1	-8	5	67%	4.0	-30	-3.7	-1.0
CC1CCC2(CC1)NC(=O)N(CC(=O)Nc1ccc3c(c1)OCCCO3)C2=O (stereo not given)	7	·	-1%	·	·	-4.3	-1.9
Cc1onc(C(=O)N2CCC(Cc3ccccc3)CC2)c1[N+](=O)[O-]	3	-17	-9%	-1.7	-3	·	-3.1
COC(=O)c1ccc(NC(=O)C(C)Oc2ccccc2)cc1 (stereo not given)	-6	0	-3%	?	12	2.3	-1.5
COc1ccc(CCN(C)C(=O)CSc2nnc(C3CC3)n2N)cc1OC	0	-6	-1%	-0.7	-5	0.4	-3.6
CC(=O)N1CCN(Cc2nc3cc(NC(=O)c4ccccc4)ccc3n2C)CC1	0	-22	1%	0.2	?	-1.2	-5.0
O=C(CCc1nc2ccccc2c(=O)[nH]1)Nc1cc(C(F)(F)F)ccc1N1CCCC1	3	1	-6%	·	·	-6.4	-3.7
COCC(C)n1c(SCC(=O)Nc2ccc3c(c2)OCCO3)nc2ccccc2c1=O (stereo not given)	-1	-5	7%	·	·	-2.8	1.8
Oc1ccc(-c2onc(C(F)(F)F)c2-c2cscn2)c(O)c1	7	33	-9%	0.9	-3	5.2	-0.1
CCCC1NC(=S)N(C2CCCCC2)C1=O (stereo not given)	12	8	-6%	0.1	-2	-1.6	0.0
O=C(CSc1nc2cccnc2n1Cc1ccccc1)NCc1ccco1	-27	-11	9%	2.0	5	5.1	-0.1
O=C(Cn1c(NCCCO)nc2ccccc21)c1cccs1	4	13	·	?	-8	4.1	3.8
COc1ccc(Cl)cc1S(=O)(=O)NC(C)C(=O)NCc1ccccn1 (stereo not given)	1	10	·	1.3	16	-0.2	0.1
O=C(COC(=O)c1cncc(Br)c1)NC1CCCC1	0	3	-1%	5.3	0	2.0	1.4
Cc1ccsc1C(=O)N1CCCC(CO)(Cc2ccccc2)C1 (stereo not given)	3	1	·	5.5	-2	3.8	-0.9
O=C(NC1CCCCC1)c1cc([N+](=O)[O-])[nH]n1	7	5	·	?	?	0.1	7.3
COc1ccc2nc(NC(=O)C3CCN(S(=O)(=O)c4cccc5nsnc45)CC3)sc2c1	24	11	1%	·	·	3.3	8.5
NNC(=O)C1CC(O)CN1S(=O)(=O)c1ccc2ccccc2c1 (stereo not given)	-3	-10	?	·	·	2.7	0.9
CCn1cc(CCC(=O)NCc2ccccc2OC)c2ccccc21	14	-8	3%	-2.4	-2	2.8	-1.3
N#Cc1nc(-c2ccco2)oc1NCc1ccccc1Cl	0	4	-1%	3.1	0	-1.5	-0.5

RanGTP-Impb inh, hit marks shown above
smiles,B2AR ag,ALR H2O2 inh,Vif TR-FRET,RanGTP-Impb inh,LANA-H2A inh,HNF4A DNA FP
Cc1ccc(C(=O)O)cc1-c1ccc(/C=C2\SC(=O)N(CC(=O)Nc3ccccc3)C2=O)o1,-3,0,·,24*,2.0,6.3

Further compounds follow:
SMILES	B2AR ag	ALR H2O2 inh	Vif TR-FRET	RanGTP-Impb inh	Calb FLC	LANA-H2A inh	HNF4A DNA FP
Cc1ccc(-n2c(-c3ccco3)nc3nc4ccccc4nc32)cc1F	5	42	17%	1.7	-2	4.7	23
Cc1cc(C(=O)COC(=O)c2ccccc2O)c(C)n1Cc1cccs1	1	-1	3%	-3.0	-11	-0.8	-0.2
CCCNC(=O)Cc1ncn[nH]1	11	-23	-3%	-0.2	-19	0.9	1.1
COc1ccccc1C(=O)COC(=O)COc1ccc(C#N)cc1	-4	10	-4%	·	·	6.2	2.9
O=C(c1ccco1)N1CCN(CC(=O)N2c3ccccc3CCc3ccccc32)CC1	3	7	?	-1.7	-11	0.3	-1.1
O=[N+]([O-])c1cccc2c3c([nH]c12)CCCC3	2	-3	-5%	-2.8	-5	0.6	4.2
O=C(Nc1ccc2c(c1)ncn2C1CCCCC1)c1ccco1	-28	0	0%	-2.5	15	-1.2	-1.6
CCn1nc(NS(=O)(=O)c2ccc([N+](=O)[O-])cc2)c2cc3cccc(C)c3nc21	7	44	·	-1.2	-2	4.4	2.0
Cc1cc(C)c(S(=O)(=O)N2CCCCC2)c(C)c1-n1ncnn1	0	-19	5%	-3.6	1	-0.4	-0.6
CCN1C(N(C)CCc2cccs2)=N[C@@H](c2ccccc2)C(C(=O)OC)=C1C	2	-19	·	9.3	-6	4.4	0.8
Oc1ccccc1C=NN=Cc1c(O)ccc2ccccc12	3	·	-10%	·	·	·	34
